EPAC1 agonist: validation of human EPAC1 agonists; AID 1645883; 16,000 tested, 1% active; O95398; Potency, µM, without a hit: max response, positive = active, actives largely listed as activators; EPAC1 Rap1b BODIPY-GDP exchange, fluorescence; active means well fitted activation curve with a large enough effect; inconclusive means small, poorly fitted or top-dose-only effect; inactive means no such curve, though single readings can be large or run the other way;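 further: nearly all actives have a fitted effect of over 70% in size; series mostly up to about 76 or 150 µM; scaled to a cAMP control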
Target sequence (O95398 whole entry, looked up): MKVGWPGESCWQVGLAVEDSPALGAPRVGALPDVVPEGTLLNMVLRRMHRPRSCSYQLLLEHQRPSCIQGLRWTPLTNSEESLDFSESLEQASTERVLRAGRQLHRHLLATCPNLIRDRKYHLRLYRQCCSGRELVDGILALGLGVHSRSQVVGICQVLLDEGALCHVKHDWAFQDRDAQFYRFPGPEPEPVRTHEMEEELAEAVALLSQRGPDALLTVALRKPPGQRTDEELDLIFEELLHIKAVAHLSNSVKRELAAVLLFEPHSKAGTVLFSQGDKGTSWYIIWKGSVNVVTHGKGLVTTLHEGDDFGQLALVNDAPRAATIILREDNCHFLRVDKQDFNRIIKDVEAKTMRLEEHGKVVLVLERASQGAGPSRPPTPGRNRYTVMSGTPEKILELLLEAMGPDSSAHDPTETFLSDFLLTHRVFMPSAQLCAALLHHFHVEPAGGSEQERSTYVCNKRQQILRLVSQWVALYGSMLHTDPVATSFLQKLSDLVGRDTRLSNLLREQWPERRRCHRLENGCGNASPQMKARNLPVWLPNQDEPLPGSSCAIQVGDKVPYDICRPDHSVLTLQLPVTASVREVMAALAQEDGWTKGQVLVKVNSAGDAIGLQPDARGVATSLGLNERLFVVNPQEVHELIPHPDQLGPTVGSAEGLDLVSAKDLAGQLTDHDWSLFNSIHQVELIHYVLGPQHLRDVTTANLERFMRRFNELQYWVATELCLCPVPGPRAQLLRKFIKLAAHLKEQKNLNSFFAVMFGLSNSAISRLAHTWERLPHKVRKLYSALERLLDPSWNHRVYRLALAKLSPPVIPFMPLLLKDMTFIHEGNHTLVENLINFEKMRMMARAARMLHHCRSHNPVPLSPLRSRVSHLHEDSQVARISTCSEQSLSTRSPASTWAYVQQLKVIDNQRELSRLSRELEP
* hit, by the source's call; ? = inconclusive; & = joins results of further samples; ! = not active in a repeat; [ ] = remark or other dose. On the % scale 0 is the no-effect control and ±100 the full control effect; potency means the concentration at half of the fitted maximal effect. An excerpt. The share of hits here may be higher or lower than overall.

EPAC1 agonist	mol
3%	COCC(=O)N1CCC2(CCCN(c3ccncc3)C2)CC1
-83%[inhibitor]	COc1ccc(NC(=O)N2CC[C@@]3(CCCN(C(=O)c4cccn4C)C3)C2)cc1
100µM*	O=c1c(-c2ccc(F)cc2)nc2cnc(Nc3ccccc3)nc2n1Cc1cccs1
8%	CN(C)C(=O)c1ccc(-c2cncnc2Nc2ccc(F)cc2)cc1
6%	N#Cc1cccc(NC(=O)N2CCC3(CC2)CCN(C(=O)c2ccco2)CC3)c1
-16%	CC(C)[C@@H](N)C(=O)O
15%	CCNc1ncc2nc(-c3cccs3)c(=O)n(C)c2n1
?	COc1ccc(Oc2ncc3nc(-c4ccccc4)c(=O)n(C[C@H]4CCCO4)c3n2)cc1
-10%	C/C=C/c1ccc(OC(C)[C@@H](O)c2ccc(O)c(OC)c2)c(OC)c1 (stereo not given in full)
-39%[inhibitor]	O=C(Nc1cccc(F)c1)N1CCCC2(CCN(S(=O)(=O)c3ccccc3)CC2)C1
-11%	COCc1c(C(=O)NC2CCCC2)cnn1-c1nccc(-c2cccs2)n1
9%	COC(=O)N1CCC2(CCN(Cc3ccc(C#N)cc3)CC2)CC1
12%	COc1ncc2nc(-c3ccc(F)cc3)c(=O)n(Cc3ccc(F)cc3)c2n1
?	c1ccc(Nc2ncnc3ccc(-c4cccnc4)cc23)cc1
-9%	CCC1(C2CCN(Cc3ccccn3)CC2)NC(=O)N(CC2COc3ccccc3O2)C1=O (stereo not given)
2%	COc1ccc(F)c(CN2CCC3(CCC(CNC(=O)c4ccn(C)n4)O3)CC2)c1 (stereo not given)
-25%	N[C@H]1C(O)O[C@H](CO)[C@@H](O)[C@@H]1O (stereo not given in full)
6%	CCCS(=O)(=O)NCc1c(C)ncc2c1CCN(C(=O)c1ccc3[nH]c4c(c3c1)CCCC4)C2
-9%	O=c1c(-c2ccccc2)nc2cnc(Nc3ccccc3)nc2n1C[C@H]1CCCO1
-2%	O=c1c(-c2ccc(F)cc2)nc2cnc(N3CCOCC3)nc2n1Cc1ccc(F)cc1
-26%	Cn1cc(-c2nc3cnc(Oc4ccccc4)nc3n(Cc3cccs3)c2=O)c2ccccc21
-8%	Cc1c(C(=O)NCC2(N3CCOCC3)CCCCCC2)cnn1-c1nccc(-c2ccccc2F)n1
100µM*	O=c1c(-c2ccc(F)c(F)c2)nc2cncnc2n1Cc1ccccc1Cl
5%	COc1ccc(N2C(=O)[C@@H]3C[C@H]2CN3Cc2cccn2-c2ccccn2)cc1Cl
-14%	CC(=O)Oc1ccccc1C(=O)Nc1ncc([N+](=O)[O-])s1

Further compounds:
EPAC1 agonist	mol
-1%	COc1ccc(CN2CCOc3c(O)cc(-c4cc(C)c5ccc(F)cc5n4)cc3C2)c(O)c1
-52%[inhibitor]	CCNc1ncc2nc(-c3ccc(OC)cc3)c(=O)n(-c3ccc(OC)cc3)c2n1
-2%&19%	CC(=O)OCC(=O)[C@@]1(O)CC[C@H]2[C@@H]3CCC4=CC(=O)CC[C@]4(C)[C@H]3C(=O)C[C@@]21C
-59%[inhibitor]	CC1(C)CCC2(C(=O)O)CC[C@]3(C)C(=CCC4[C@]5(C)CCC(O)C(C)(C)C5C(O)C[C@]43C)C2C1 (stereo not given in full)
9%	O=c1cc(-c2ccccc2O)oc2cc(O)cc(O)c12
-10%	CN(C)c1ccc(C(=C2C=CC(=[N+](C)C)C=C2)c2ccccc2)cc1
7%	CCOc1ccc(C(=O)c2ccc(OC)c(O)c2O)cc1
-43%[inhibitor]	COc1ccccc1-c1nccc(Nc2ccc(F)cc2)n1
-35%	O=C(Nc1cccc(F)c1)N1CC2(CCN(C(=O)c3ccncc3)CC2)C1
-4%	CN(C)C(=O)c1ccc(-c2cc(-n3ccnc3)ncn2)cc1
-6%	O=C(O)CCC/C=C\C[C@@H]1[C@@H](/C=C/[C@H](O)C2Cc3ccccc3C2)[C@@H](F)C[C@@H]1O
-7%	Clc1ccccc1-c1ccc2ncnc(NCc3cccnc3)c2c1
-43%[inhibitor]	O=C(Nc1ccccc1)N1CCCC2(CCN(S(=O)(=O)c3ccccc3)CC2)C1
0%	O=C(c1ccco1)N1CCC2(CCN(Cc3ccccc3)CC2)CC1
8%	COc1cc2ccc(=O)oc2c(OC)c1OC
?	O=C(O)c1c(Cl)c(Cl)c(Cl)c(Cl)c1-c1c2cc(I)c(=O)c(I)c-2oc2c(I)c(O)c(I)cc12
6%&-16%&10%	Cc1cccc(C(=O)NCN2CCN(c3ccccc3C#N)CC2)c1
?	O=C(C[n+]1cccc2cccc(O)c21)c1ccccc1
-31%	COc1ccc(S[C@@H](CCN2CC[C@H](C)CCC2=O)c2ccccc2)cc1
?	O=C(O)c1cc(=O)c2ccc(Cl)cc2[nH]1
-7%	CC(C)n1cnc2c(NCc3ccccc3)nc(NCCO)nc21
-2%	COc1cc(-c2oc3cc(O)ccc3c(=O)c2O)ccc1O
2%	CC(=O)N1CCC[C@H]1C(=O)NCC1Cc2cc(F)cc(-c3ccc(F)c(C)c3)c2O1 (stereo not given in full)
-61%[inhibitor]	Oc1ccccc1C=NCc1ccccc1
-4%	C[C@]12C[C@H](O)CC(CO)(CO)C1[C@H](O)C[C@@]13CC4[C@@H](CC12)[C@@]4(C)C3 (stereo not given in full)

More entries follow:
EPAC1 agonist	mol
112µM*	COc1cccc(Nc2ncc3nc(-c4cc(F)cc(F)c4)c(=O)n(CCC#N)c3n2)c1
-7%	O=C(O)C1(O)CC(O)C(O)C(O)C1 (stereo not given)
-1%	Cc1cccc(C(=O)NCC2Cc3cc(F)cc(-c4cnccn4)c3O2)n1 (stereo not given)
11%&-23%	CNC(=O)Oc1ccc2c(c1)[C@]1(C)CCN(C)[C@@H]1N2C
-15%	Cc1c(C(=O)NC2CCCCCC2)sc2ncnc(NCC3CCCO3)c12 (stereo not given)
-12%	COc1ncc2nc(-c3cc(F)cc(F)c3)c(=O)n(C[C@H]3CCCO3)c2n1
8%	CC1OC1P(=O)(O)O (stereo not given)
-7%	CN(CCO)C(=O)c1cn(C2CCN(Cc3cccc(C(F)(F)F)c3)CC2)nn1
-14%	Nc1nc2c(ncn2CCC(CO)CO)c(=O)[nH]1
-37%[inhibitor]	CCCCCCCCCCCCCCCC(=O)OC[C@@H](O)[C@H]1OC[C@H](O)[C@H]1O
-26%	COc1ccc(CN2CCOc3c(cc(-c4ncc(C(F)(F)F)cc4Cl)cc3OCC3CCCO3)C2)c(O)c1 (stereo not given)
?	C=C1[C@@H](O)CN(Cc2ccc(OC)cc2)S1(=O)=O
-77%[inhibitor]	O=C(c1ccco1)N1CCC2(CCN(Cc3cc(C(F)(F)F)cc(C(F)(F)F)c3)CC2)CC1
56µM*!	CCOC(=O)C1=C(C)NC(C)=C(C(=O)OC)C1c1cccc(Cl)c1Cl (stereo not given)
-4%	O=C(NCCc1nnc2n1CCN(Cc1ccc(F)c(F)c1)CC2)c1ccoc1
?	CN(C)c1ccc(-c2nc(NCc3cccnc3)c3ccccc3n2)cc1
-45%[inhibitor]	O=C(c1cc(C(F)(F)F)cc(C(F)(F)F)c1)N1CCC2(CCCN(c3ccccn3)C2)CC1
4%	Cc1noc(C)c1-c1ccc2ncnc(Nc3ccc(F)cc3)c2c1
28%	COc1cccc(Cn2c(=O)c(-c3cccs3)nc3cnc(N4CCNCC4)nc32)c1
-9%	CC(C)C[C@H](NC(=O)[C@H](O)[C@H](N)Cc1ccccc1)C(=O)O
-3%	COC(=O)[C@@H]1CC2=CC(=O)CC[C@]2(C)[C@@]23O[C@@H]2C[C@@]2(C)[C@@H](CC[C@@]24CCC(=O)O4)[C@H]13
-2%	O=C(Nc1ccc(S(=O)(=O)N2CCOCC2)cc1)c1cc(Cl)ccc1NS(=O)(=O)c1ccc(Cl)s1
-10%&-30%	O=C1N=C(O)CN1/N=C/c1ccc(-c2ccc([N+](=O)[O-])cc2)o1
-7%	Cc1noc(C)c1-c1nc(Nc2ccncc2)c2ccccc2n1
-4%	CC(C)CCCC(C)NC(C)C (stereo not given)

(listing goes on)
EPAC1 agonist	mol
5%&-3%	OC[C@H]1O[C@@H](n2cnc3c(NC4CCCCC4)ncnc32)[C@H](O)[C@@H]1O
-7%&-53%&-20%	CCCCCC[C@@H](O)C/C=C\CCCCCCCC(=O)O
26%	CC(C)CC(N)C(=O)NC(C)C(=O)O (stereo not given)
-73%[inhibitor]	CN(C)c1ccc(-c2cc(Nc3ccc(F)cc3)ncn2)cc1
-20%	O=C(Nc1cccc(F)c1)N1CC[C@@]2(CCCN(C(=O)c3ccco3)C2)C1
-5%	COC(=O)c1cccc(C(=O)N2CCc3c(cnc(C)c3CNC(=O)/C=C/c3cccs3)C2)c1
16%	Cc1cccc(CNc2ncncc2-c2cccc(NS(C)(=O)=O)c2)c1
-15%	COc1ccccc1-c1nc(N(C)C)c2ccccc2n1
7%	COc1ccc2[nH]cc(CCNc3nc(-c4ccccc4CN(C)C)nc4ccccc34)c2c1
27%&16%	CC/C(=C(/CC)c1ccc(O)cc1)c1ccc(O)cc1
-62%[inhibitor]	O=c1c(-c2cc(F)cc(F)c2)nc2cnc(Oc3ccccc3)nc2n1C1CC1
-2%	CC(N)(COP(=O)(O)O)C(=O)O (stereo not given)
-14%	OCc1cc2c(cn1)[nH]c1ccccc12
0%	Cc1c(C(=O)N2CCN(C(C)C)CC2)sc2ncnc(NCc3ccco3)c12
8%	CN(C)CCC=C1c2ccccc2C(C)(C)c2ccccc21
-37%[inhibitor]	COc1ccc(C(=O)N2CCC3(CC2)CCN(c2ccncc2)CC3)cc1
17%	O=c1c2ccccc2oc2ccccc12
-7%	COc1ccc(Oc2ncc3ncc(=O)n(CCC#N)c3n2)cc1
-11%	Nc1ccncc1N
-20%	COc1ccccc1-c1nccc(N2CCN(C)CC2)n1
25%	CN(C)c1ccc(-c2nc(NC3CCNCC3)c3ccccc3n2)cc1
-26%	CC1(C)S[C@@H]2[C@H](NC(=O)COc3ccccc3)C(=O)N2C1C(=O)OCc1ccccc1 (stereo not given in full)
14%	O=C(c1n[nH]c2c1CCCC2)N1CCOc2ccc(C(O)C(c3ccccc3)c3ccccc3)cc2C1 (stereo not given)
-2%&24%&-10%	CN(C)CCC(c1ccccc1)c1ccccn1 (stereo not given)
-87%[inhibitor]	O=C(Nc1cccc(F)c1)N1CC[C@@]2(CCCN(C(=O)c3csnn3)C2)C1

Next entries:
EPAC1 agonist	mol
-12%	Cc1ccc(CNc2ncnc3sc(C(=O)N4CCC[C@H]4C(N)=O)c(C)c23)o1
19%	CC(C)c1c(C(=O)N(C)CC2CCCN(C)C2)cnn1-c1nccc(-c2cccs2)n1 (stereo not given)
-11%	Cc1nc(NCc2cnn(C)c2)sc1-c1ccn(-c2cccc(F)c2)n1
-2%	CCCS(=O)(=O)NCc1c(C)ncc2c1CCN(C(=O)c1ccc(Cl)cc1)C2
-15%	CCCCCCCCCCCCCCCC[n+]1ccc(C)cc1
13%	CNC(=O)c1ccccc1Sc1ccc2c(/C=C/c3ccccn3)n[nH]c2c1
23%	CCOC(=O)C[C@H]1c2cc(F)ccc2S(=O)(=O)N1C1CCCC1
-14%	Nc1ncnc2c1ncn2[C@H]1O[C@H](CO)[C@@H](O)[C@@H]1O
12%	O=C(Oc1ccccc1)N1CCC[C@@]2(CCN(c3ccncc3)C2)C1
15%	CN(C)Cc1ccccc1-c1cncnc1Nc1ccncc1
3%	O=C(Nc1nc2ccccc2n1CCN1CCOCC1)c1cccc([N+](=O)[O-])c1
7%	O=C(/C=C\c1ccc(O)c(O)c1)O[C@@H](Cc1ccc(O)c(O)c1)C(=O)O
6%	CSc1cc2c(cc1C(F)(F)F)N(C(=O)Nc1cccnc1)CC2
-7%	COc1cc(=O)n2c(c1C(=O)N(C)Cc1nonc1C)CCN(Cc1ccccc1Cl)CC2
4%	CCOC(=O)CN(C)C(=O)c1cnn(-c2ncc3c(n2)-c2ccccc2CCC3)c1C
-42%[inhibitor]	C=C1[C@@H]2CC[C@@H](C2)C1(C)C
-4%	Cc1ccc(S(=O)(=O)NC(=O)N[C@@H](C)Cc2ccccc2)cc1
-28%	COc1ccc(C(=O)N2CCC3(CC2)CCN(C(c2ccccc2)c2ccccc2)CC3)cc1
-49%[inhibitor]	CC(C)CN1CCC2(CC1)CCN(C(=O)c1csnn1)CC2
-26%	CN(C/C=C/C#CC(C)(C)C)Cc1cccc2ccccc12
-13%	Cc1cnc(CNc2nc(-c3ccccc3C(F)(F)F)nc3ccccc23)cn1
9%	CSc1nnc(CNS(=O)(=O)c2ccc(F)cc2F)n1-c1ccccc1C
-73%[inhibitor]	CC(C)=CCCC1(C)C=Cc2c(O)c3c(c(CC=C(C)C)c2O1)OC12C(=CCCC1C(C)(C)O[C@@]2(C/C=C(\C)C(=O)O)C(=O)O)C3=O (stereo not given in full)

Compound activity: PubChem BioAssay, National Center for Advancing Translational Sciences (NCATS)
